AF4-AF9 inh – inhibitors of human MLL-AF4/AF9 interaction | AlphaScreen, biotin-AF4 peptide binding to FLAG-AF9 | inhibition, % at 10 µM | hit rate 0.47% among 350,000;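 active = every replicate reaching a set inhibition limit, whatever the replicate mean, cut at about 25% in these data; inconclusive = mean inhibition reaches that limit but some replicates miss it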;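 note: 0% = plate neutral control median and 100% = total signal loss; the record names both 10 and 1 µM as test concentration; the first replicate is given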
T cruzi repl – T. cruzi replication inhibition. hit rate 1.4% among 300,000. AID 1885. T. cruzi beta-gal in NIH3T3, luminescence, 90 h. inhibition, % (concentration not given with the values);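 active = mean inhibition across valid replicates above about 55%, limit read from the data; inconclusive = mean below that limit but half or more replicates reach it; inactive = mean below it, under half of replicates reach it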;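 note: signal also drops with host cell toxicity which is not excluded here; 0% = plate median of DMSO wells and 100% = zero luminescence signal; higher percent means less beta-gal luminescence so fewer parasites; stock transfer was 50 nL into about 50 µL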
A1 inh – inhibitors of the anti-apoptotic protein A1, read as caspase activation. caspase activation, % (concentration not given with the values). hit rate 0.066% among 330,000. MEF A1-2A-BIM cells, Caspase-Glo 3/7 luminescence, 3 h; percent of clofoctol response, vehicle zero;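 active = over half of replicate activation scores above 10%, or exactly half above 10 with the replicate mean above 10; inconclusive = replicate mean below 10 yet half the replicates above 10; inactive = over half of replicates below 10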;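 note: wells of about 30 µL received 50 nL stock; many hits fall short of the cut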
LANA-H2A inh – blocks KSHV LANA binding to histone H2A/H2B; hit rate 0.6% among 320,000; cell-free LANA-H2A/H2B peptide, fluorescence polarization; inhibition, % (concentration not given with the values); in the data active = inhibition mostly above about 10%, no sharp cut-off; inactive = mostly below about 6.7%;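 note: stock transfer was 7.5 nL into about 10 µL; 0% = median of vehicle wells and 100% = median of positive control wells; one replicate is shown; the record names a cut of 25% in any replicate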
Target sequence (Q9QR71 whole entry, looked up): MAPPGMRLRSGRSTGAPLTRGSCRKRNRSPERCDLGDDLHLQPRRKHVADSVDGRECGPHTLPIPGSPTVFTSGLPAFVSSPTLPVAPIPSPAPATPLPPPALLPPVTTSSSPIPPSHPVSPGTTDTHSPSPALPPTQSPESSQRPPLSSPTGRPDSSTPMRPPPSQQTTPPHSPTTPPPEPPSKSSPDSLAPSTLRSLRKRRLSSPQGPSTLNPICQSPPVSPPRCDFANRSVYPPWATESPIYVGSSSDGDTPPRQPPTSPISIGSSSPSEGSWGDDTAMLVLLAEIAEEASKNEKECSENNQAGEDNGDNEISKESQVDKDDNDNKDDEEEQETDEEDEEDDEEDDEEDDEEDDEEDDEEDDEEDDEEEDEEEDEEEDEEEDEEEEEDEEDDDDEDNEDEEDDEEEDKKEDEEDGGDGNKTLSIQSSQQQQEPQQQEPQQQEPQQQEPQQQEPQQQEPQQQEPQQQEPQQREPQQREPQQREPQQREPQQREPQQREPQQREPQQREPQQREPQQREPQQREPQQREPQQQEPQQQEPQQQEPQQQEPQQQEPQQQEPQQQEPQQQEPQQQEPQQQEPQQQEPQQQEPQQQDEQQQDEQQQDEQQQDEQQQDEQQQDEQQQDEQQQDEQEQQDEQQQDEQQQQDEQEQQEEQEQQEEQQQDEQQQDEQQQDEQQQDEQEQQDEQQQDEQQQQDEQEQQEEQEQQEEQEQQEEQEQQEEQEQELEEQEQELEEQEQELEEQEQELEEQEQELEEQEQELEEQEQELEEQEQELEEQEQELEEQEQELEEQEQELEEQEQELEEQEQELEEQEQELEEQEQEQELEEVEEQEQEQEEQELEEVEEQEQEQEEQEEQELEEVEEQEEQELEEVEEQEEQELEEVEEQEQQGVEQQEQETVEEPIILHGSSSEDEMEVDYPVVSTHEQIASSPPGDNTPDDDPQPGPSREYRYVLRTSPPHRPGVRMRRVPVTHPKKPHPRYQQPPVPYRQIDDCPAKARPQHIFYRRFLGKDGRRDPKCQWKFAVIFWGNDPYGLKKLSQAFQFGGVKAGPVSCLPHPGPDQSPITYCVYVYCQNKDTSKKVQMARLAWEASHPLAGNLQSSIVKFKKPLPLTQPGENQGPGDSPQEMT
Beta apoptosis – blocks beta cell apoptosis | protection from apoptosis, % (concentration not given with the values) | AID 435005 | hit rate 0.8% among 300,000 | INS-1E cytokine-induced death, ATP luminescence, 48 h; percent of positive-control rescue, neutral wells zero;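 active = all replicates at 75% or more, or half of them and the mean; inconclusive = half reach 75% but not the mean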;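 note: 0% = cytokine-treated negative control wells and 100% = positive control rescue; higher means more ATP so stronger rescue from cytokine killing; wells of about 40 µL received 100 nL stock; the first replicate is given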
RanGTP-Impb inh – inhibitors of RanGTP-importin-beta interaction, primary screen, biochemical, FRET, CFP-Ran, YFP-importin-beta, homogeneous; hit rate 1.1% among 300,000; cell-free CFP-Ran/YFP-importin-beta FRET ratio; inhibition, % (no concentration beside the values);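 active = most replicates above 15%; inconclusive = exactly half above 15%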;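 note: 0% = DMSO wells and 100% = Ran loaded with GDP instead of GTP; wells of about 40 µL received 100 nL stock; the first replicate is given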
Vif TR-FRET – HIV-1 Vif–A3G interaction blockers – biochemical, TR-FRET, GST-Vif 1-94, biotin-A3G peptide, dose response retest, primary screen (AID 1117319) | TR-FRET GST-Vif / biotin-A3G peptide binding; higher % means a stronger effect; test concentration not given here; strong numbers were not always called active | one-dose inhibition, %; IC50 in µM for titrated hits | hit rate 0.57% among 260,000;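 active = above the screen mean plus three standard deviations and confirmed in dose response; inconclusive = results disagree or hit not tested in dose response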;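 note: Vif residues 1-94 fused to GST binding biotinylated APOBEC3G peptide 110-148; 0% = full assay without inhibitor and 100% = GST in place of GST-Vif; retest series ran down from 100 µM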
Calb FLC – C. albicans growth modulation with fluconazole. C. albicans CaCi-2 (fluconazole-resistant clinical isolate) + fluconazole, Alamar Blue growth, 48 h. growth inhibition, % (concentration not given with the values). hit rate 0.57% among 300,000;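 active = most replicates above 75%; inconclusive = exactly half above 75%; inactive = most below 75%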;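 note: all wells also contain fluconazole at 8 µg/ml as a sub-toxic cotreatment; 0% = median of DMSO wells and 100% = median of geldanamycin control wells; wells of about 8 µL received 7.5 nL stock; the first replicate is given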
Active calls of the source: *; ? = inconclusive; / = not tested or not shown; & = joins results of further samples. Compounds were not picked by outcome (roughly 4.3% active in at least one column).

SMILES	AF4-AF9 inh	T cruzi repl	A1 inh	LANA-H2A inh	Beta apoptosis	RanGTP-Impb inh	Vif TR-FRET	Calb FLC
Cc1ccc(C)c(C(=O)COC(=O)Cn2c(C)csc2=O)c1	1.8	-3	0.0	-1.9	0	3.1	2%	-13
CC(Oc1ccc2c3c(c(=O)oc2c1)CCCC3)C(=O)NCC(O)c1ccccc1 (stereo not drawn)	0.9	2	0.1	-1.0	4	-1.8	/	1
c1ccc(C[n+]2cccc3c4ccccc4ccc32)cc1	/	?	1.2	3.8	27	5.5	5%	-6
COc1cc2c(cc1OC)CN(CC(=O)Nc1cccc(C)c1)CC2	/	8	0.6	-3.5	-9	32*	10%	1
COc1ccc(OC)c(Nc2nc(-c3ccc(O)c(O)c3)cs2)c1	/	-43	3.9	-0.7	1	6.0	4.2µM*	98*
COCCCNC(=O)COc1cc(C)c(Cl)c(C)c1	/	-9	1.4	3.3	1	-1.1	1%	4
O=C(Nc1ccc(N2CCOCC2)c(S(=O)(=O)Nc2ccc(Cl)cc2)c1)c1ccc(=O)[nH]n1	1.9	/	0.7	-3.2	1	/	/	/
CC(C)CCN(C(=O)C1CSC2(C)CCC(=O)N12)c1c(N)n(Cc2ccccc2)c(=O)[nH]c1=O (stereo not drawn)	-20	-1	0.5	3.0	-1	-0.6	-2%	3
O=C(Nc1ccc(S(=O)(=O)NC2=NCCCCC2)cc1)c1ccc([N+](=O)[O-])s1	-1.6	65*	0.0	2.4	54	1.7	0%	7
CN(C(=O)c1ccc2c(c1)OCO2)C1CCCCC1	-13	1	-4.1	-2.6	12	?	0%	-21
CC(=O)Nc1ccc(S(=O)(=O)N(Cc2ccccc2)C(C)C)cc1	/	7	1.5	-0.5	39	-1.5	-2%	-13
COc1cccc(CNC2CCCc3ccccc32)c1OC (stereo not drawn)	-0.1	14	1.1	4.1	3	-4.2	1%	-13
COc1ccccc1CNC(=O)CN(c1ccc(C)cc1)S(=O)(=O)c1c(C)nn(C)c1C	/	7	0.2	-0.4	11	0.1	-2%&-9%	0
CCOc1cc(C)c(C(C)C)cc1S(=O)(=O)N1CCN(C)CC1	/	12	1.7	-7.9	-7	0.4	?	20
Cc1ccc(S(=O)(=O)NNC(=O)c2snnc2C)cc1	/	-5	0.1	-0.4	-6	-1.4	?	-13
CCn1c(=O)n(CC(=O)Nc2cccc(OC)c2)c(=O)c2ccccc21	/	-2	0.0	/	6	1.0	0%	-9
CCOC(CNC(=O)C(=O)Nc1cc2c3c(c1)CC(=O)N3CCC2)OCC	2.9	-2	1.2	12	1	0.4	38%	-4
Cc1cc2cc3c(cc2nc1SCC(=O)OC(C)C)OCO3	/	-7	/	/	/	8.1	30%	1
O=C(CS(=O)(=O)c1cn(CC(=O)N2CCCC2)c2ccccc12)Nc1ccccc1F	-0.7	5	-0.3	-6.5	0	2.5	-2%	-10
COc1ccccc1C(=O)Nc1ccc2c(c1)CN(C(=O)CSC)CC2	-11	4	-0.4	1.0	/	1.7	/	5
CCc1nnc(NC(=O)CSc2nc3c(c(=O)n2C)SC(C)C3)s1 (stereo not drawn)	7.1	-2	0.2	-4.0	2	4.5	-2%	6
O=C(CCC1CCN(Cc2ccccc2O)CC1)NC1CC1	0.1	-10	0.2	1.9	-5	-3.8	3%	-9
COc1ccc(CC2S/C(=N/N=C/c3ccc(O)cc3)NC2=O)cc1 (stereo not drawn)	-5.4	18	-0.3	-1.2	-4	-1.6	-2%	-4
COC(=O)C1C2CCC(C2)C1C(=O)OCC(=O)c1ccc(C)cc1 (stereo not drawn)	/	5	0.0	0.3	-2	-1.2	74%	-9
CCCC[n+]1ccn(-c2nc3ccccc3nc2[N-]S(=O)(=O)c2cccs2)c1	1.2	-6	0.8	2.5	0	3.1	/	-9

Other entries.
SMILES	AF4-AF9 inh	T cruzi repl	A1 inh	LANA-H2A inh	Beta apoptosis	RanGTP-Impb inh	Vif TR-FRET	Calb FLC
O=C(COC(=O)COc1ccc(Cl)cc1Cl)NC1CC1	-0.7	/	0.1	1.4	-3	/	/	/
N#Cc1ccc(C23CC4(C2)[C@H](CN(Cc2ccc(-c5ccccc5)cc2)[C@@H]4c2ccccc2)C3c2ccc(C(F)(F)F)cc2)cc1 (stereo partly drawn)	0.4	6	0.4	1.3	11	0.2	5%	-8
C=C(C)c1cccc(C(C)(C)NC(=O)Nc2ccc(OC)nc2)c1	-4.2	8	-0.5	5.3	/	9.7	11%	6
O=C(Cc1cc(=O)[nH][nH]1)N/N=C/c1cccc(Cl)c1Cl	-2.9&1.3	-31&-14	-1.2&2.0	-1.3&-2.5	-2&0	-1.4&-0.1	13%&26%	-5&-5
Clc1ccc(-n2c(SCc3nc4ccccc4[nH]3)nnc2-c2ccncc2)cc1	/	11	0.4	-1.9	-2	5.6	13%	7
COC(=O)c1cc(-c2cccc(OC)c2)n[nH]1	/	-17	-0.1	-0.1	2	-1.8	2%	-2
NS(=O)(=O)c1ccc(NC(=S)NCc2ccccc2Cl)cc1	/	-26	0.9	0.4	-7	3.8	/	-6
Cc1ccc(S(=O)(=O)/N=C(\N)c2ccc(Cl)cc2)cc1	-21	3	0.7	-0.3	-3	2.9	5%	17
COC(=O)c1sccc1NC(=S)N1CCN(c2ccccc2F)CC1	/	-5	-0.1	-2.9	-7	4.6	/	12
O=C(NC(CC(=O)N1CCN(c2ccccc2)CC1)c1ccccc1)c1ccccc1Cl (stereo not drawn)	5.2	-13	0.6	4.7	-1	2.6	-11%	17
O=C(c1ccco1)N1CCN=C1SCc1cccc(F)c1	0.5	11	-0.6	-2.0	/	2.8	3%	2
Cn1c(=O)c(=O)n(C)c2cc(S(=O)(=O)N3CCCC3C(=O)NCc3cccnc3)ccc21 (stereo not drawn)	6.0	0	0.0	3.2	-4	1.9	?	-5
CCOC(=O)CNS(=O)(=O)c1ccc(C)cc1	-0.9	5	0.7	3.4	-5	-2.9	-1%	3
Cn1c(SCC(=O)NNC(=S)Nc2ccccc2)nnc1-c1ccccc1	/	5	-0.1	2.6	-4	-2.1	-11%	3
Cc1cccc2cc3c(NC(=O)c4ccccn4)nn(C)c3nc12	/	4	-0.1	-1.3	1	35*	1%	2
C/C(=N/NC(=S)Nc1ccccc1)c1ccc2c(c1)OCO2	-20	49	0.8	2.7	3	-1.2	-8%	5
C/C(=N\NC(=O)c1ccc(CN(C)S(=O)(=O)c2ccc(C)cc2)cc1)c1ccc(OC(F)F)cc1	2.8	10	-1.6	1.8	-2	-0.7	/	-4
CN(C)S(=O)(=O)c1cccc(NC(=O)c2n[nH]c(=O)c3ccccc23)c1	-0.8	-5	-0.3	0.4	0	6.9	-11%	2
COC(=O)c1sc(NC(=S)NC(=O)c2ccccc2C)nc1C	0.5	2	1.0	-0.9	-6	-0.7	/	26
O=C(CN1CCN(C(=O)CNC(=O)c2ccc3c(c2)OCO3)CC1)Nc1ccccc1Cl	0.5	/	-0.5	-12	-1	/	3%	/
COc1nc(Oc2ccc(C(=O)OCC(N)=O)cc2)nc(N(C)C)n1	/	-8	0.5	-3.3	-1	-3.2	-7%	1
CCN(CC)C(=O)NCc1c(C)cc(C)cc1C	/	4	-0.4	2.7	-4	1.9	67%	-17
COC(=O)C1=C(C)N(CCc2cc(OC)c(OC)c(OC)c2)C(=O)N[C@H]1c1ccccc1	-0.3	-23	0.3	0.6	-2	4.3	/	38
Cc1ccc(-c2csc(NC3OC(=O)c4ccccc43)n2)cc1 (stereo not drawn)	3.4	-3	1.7	5.3	23	-1.4	/	4
O=C(NC1CC1)C1=C[C@@H](c2c[nH]c3ccccc23)C[C@@H](OCCCCO)O1	-6.8	-21	-1.0	0.3	-1	4.0	1%	10

Next section
SMILES	AF4-AF9 inh	T cruzi repl	A1 inh	LANA-H2A inh	Beta apoptosis	RanGTP-Impb inh	Vif TR-FRET	Calb FLC
CC(CCc1ccccc1)NC(=O)CN1C(=O)NC2(CCCCC2C)C1=O (stereo not drawn)	-0.4	/	0.7	2.6	-5	/	-11%	/
O=C(NC(=S)Nc1ccc(S(=O)(=O)Nc2nccs2)cc1)C1CC1	/	-2	0.6	2.5	-6	-1.7	-1%	-4
Cc1cc(C(=O)N=Nc2c(O)n(C(C)C)c3ccccc23)n[nH]1	/	13	0.5	3.8	/	-1.9	3%	-6
CCc1cc(=O)[nH]c(SCC(=O)N2CCC(Cc3ccccc3)CC2)n1	2.0	22	0.9	2.6	/	0.9	-4%	-1
O=C(NNC(=O)c1csc(-c2cccnc2)n1)c1ccccc1	-18	7	0.9	5.3	0	2.9	7%	13
CCc1nnc(NC(=O)CSc2nc3ccccc3c(=O)n2CCCOC)s1	/	5	0.9	0.0	2	0.3	-6%	-6
O/C(=C\c1ccc2ccccc2n1)c1ccncc1	3.1	-7	-12	0.7	10	?	/	-18
CNc1ccc(SC#N)cc1	-0.8	6	0.7	1.5	4	-0.3	/	12
COc1ccc(-c2nc(C=O)cs2)cc1	1.9	-7	-3.0	1.8	0	-2.8	3%	-4
O=C(Nc1ccc(C(=O)O)cc1)Nc1cccc2ccccc12	-0.8	-17	-6.2	2.1	3	-3.0	/	-8
O=C(c1ccc(S(=O)(=O)N2CCCC2)cc1)N1CCN(c2cccc(Cl)c2)CC1	-0.2	15	1.1	-73	/	-0.5	-3%	12
Cc1ccc(C(=O)COC(=O)[C@@H](NC(=O)c2ccco2)C(C)C)s1	2.6	/	2.1	4.5	-5	/	1%	/
CCOC(=O)c1cnc2ccc(OCC)cc2c1N1CCN(C)CC1	/	19	-0.1	/	6	0.5	10%	10
O=C(COC(=O)c1ccc([N+](=O)[O-])s1)c1ccc[nH]1	-0.9	/	-0.2	0.4	3	/	4%	/
O=C(O)CC1NC(=S)N(c2ccccc2)C1=O (stereo not drawn)	/	1	0.0	5.1	4	-0.3	1%	-12
CN(CC(=O)Nc1ccccc1Cl)C(=O)c1ccc(COc2ccccc2)cc1	-2.2	1	-0.6	6.2	/	1.5	-2%	-7
CC1CCN(C(=S)c2cccc(O)c2)CC1	-0.8	/	-0.7	2.1	-2	-4.8	5%	-16
Cc1ccc(NC(=O)COc2ccc(C(=O)NCCc3ccccc3)cc2)cc1	/	21	0.8	5.6	-9	2.8	/	14
CCOC(=O)CNCCC(=O)c1ccc(Br)cc1	/	-30	-1.6	5.0	-8	1.8	2%	-4
COc1ccc2nc(-c3ccc(F)cc3)sc2c1	-3.1	-7	-11	-3.0	2	1.3	/	-23
O=C(COc1ccccc1)Nc1ccc2[nH]ncc2c1	-3.0	-6	-1.5	0.2	8	3.5	/	9
COc1cc(/C=C2/C(=N)N3N=C(CC(=O)N4CCOCC4)SC3=NC2=O)ccc1OCc1ccc(F)cc1	-1.0	-8	-0.2	-4.0	-9	4.3	/	/
CCn1c(SC2CCOC2=O)nnc1-c1ccc(Cl)cc1 (stereo not drawn)	-6.1	3	-0.8	6.6	-1	4.9	3%	-8
O=C(NCCc1ccccc1)c1cc(-c2ccc3c(c2)OCO3)on1	/	20	-0.4	-2.2	9	-2.0	-1%	-3
Cc1cccc(NC(=O)CCC(=O)N/N=C/c2ccc(O)cc2O)c1	1.4	-8	0.6	-5.0	0	3.2	0%	6

Screening results (PubChem BioAssay)
